Compound activity from PubChem BioAssay.
GLA inh pH 4.5 – qHTS Assay for Inhibitors of Human alpha-Galactosidase at pH 4.5 | Alpha-galactosidase A (Homo sapiens), P06280 | purified enzyme, 4-MU-alpha-Gal fluorescence, pH 4.5 | activity change, negative = inhibition, % at 105 µM | 230,000 tested, under 10 active | AID 1467, 2008; inconclusive = small, poorly fitted or top-dose-only inhibition, or a rising curve; inactive = flat fitted curve, though single readings scatter; no compound was filed as active;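 note: 0% = full activity with enzyme and -100% = basal without enzyme; dose as in the result columns while the protocol names 77 µM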
Target sequence (P06280 whole entry, looked up): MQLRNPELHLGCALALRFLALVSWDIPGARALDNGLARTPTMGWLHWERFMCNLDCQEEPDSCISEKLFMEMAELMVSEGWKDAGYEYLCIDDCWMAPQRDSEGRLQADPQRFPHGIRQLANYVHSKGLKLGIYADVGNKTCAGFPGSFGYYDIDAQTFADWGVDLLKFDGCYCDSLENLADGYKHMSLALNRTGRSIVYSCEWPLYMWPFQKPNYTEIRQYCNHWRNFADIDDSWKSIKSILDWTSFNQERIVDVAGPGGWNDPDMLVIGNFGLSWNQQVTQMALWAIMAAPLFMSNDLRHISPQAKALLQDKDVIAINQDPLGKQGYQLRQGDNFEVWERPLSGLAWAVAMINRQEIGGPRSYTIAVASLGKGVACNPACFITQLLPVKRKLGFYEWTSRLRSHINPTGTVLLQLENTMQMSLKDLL
miR-21 reporter – qHTS Assay for Modulators of miRNAs and/orActivators of miR-21 | HeLa miR-21 FLuc reporter, luciferase, 48 h | Potency, µM (titrated, usually from 38.3 µM), without a hit: at the highest dose reporter change, positive = more light | 340,000 tested, under 10 active; active = well fitted rising curve with a large enough effect; inconclusive = small, poorly fitted or top-dose-only effect; inactive = no such curve, though single readings can be large or run the other way;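 note: % of control where 0% means no effect; miR-21 action dims this reporter so a rising signal means less miR-21 action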
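HeLa cells endogenously expressing miR-21, stably carrying CMV-driven firefly luciferase with a downstream miR-21 binding site, 2000 cells/well. Titrations up to approximately 40 uM, 48 hours; luciferase luminescence read.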
Rango release inh – qHTS Assay for Inhibitors of RanGTP induced Rango (Ran-regulated importin-beta cargo) - Importin beta complex dissociation; Potency, µM (series often up to 46.1 µM), for inactives: at the top dose activity change, negative = inhibition; Biochemical FRET Rango-importin beta, RanGTP-induced dissociation; 340,000 tested, 0.071% active; Snurportin-1 (Homo sapiens) + GTP-binding nuclear protein Ran (Homo sapiens) + Importin …; active means falling FRET ratio curve, often poorly fitted, with flat reads before Ran was added; inconclusive means other falling curves, or compound fluorescence or quenching; inactive means flat or rising ratio curve;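 note: potency is the fitted concentration of half-maximal effect; % of control where 0% means no effect; nearly all actives have a fitted effect of over 45% in size; -100% = wells without RanGTP and RCC1; the record marks most hits as doubtful in a second field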
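Compounds preincubate 5 min with complex of recombinant Rango and importin beta in PBS with 1 mM DTT. Ran (0.6 uM) loaded with 2 mM GTP plus 0.2 uM RCC1 starts dissociation; FRET is recorded 45 min later.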
Rango-impB inh – qHTS Assay for Inhibitors of Rango (Ran-regulated importin-beta cargo) - Importin beta complex formation; Rango CFP/YFP FRET sensor + importin beta, 45 min; Potency, µM (highest dose often 92.2 µM), without a hit: top-dose inhibition of complex formation; 340,000 tested, 0.031% active; active = rising FRET ratio curve, often small or poorly fitted; inconclusive = mostly compound fluorescence or quenching in the first reads; inactive = flat curves in all reads;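 note: potency is the fitted concentration of half-maximal effect; 0% = DMSO wells and 100% = buffer wells lacking importin beta; nearly all actives have a fitted effect of over 15% in size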
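FRET biosensor Rango (snurportin 1 IBB between N-terminal EYFP and C-terminal Cerulean), 50 nM in PBS/1 mM DTT/0.02% Tween-20/0.1% BSA, preincubated 5 min RT with compound; 0.125 microM importin beta added, 45 min RT, CFP/YFP FRET ratio read.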
Starred values were filed as active, the others as inactive; ? = inconclusive; . = no result given; [ ] = another dose, or the depositor's remark.

SMILES | GLA inh pH 4.5 | miR-21 reporter | Rango release inh | Rango-impB inh
CSc1ncc(Cl)c(C(=O)O)n1 | -4.3 | -3.9% | 12.8% | -3.6%
CNCCc1ccccc1 | 6.6 | 2.0% | . | .
CCOC(=O)c1ccc(N2C(=O)CC(N3CCC(C#N)(c4ccccc4)CC3)C2=O)cc1 (stereo not drawn) | -8.0 | -8.4% | 0.8% | -1.0%
COc1ccc(NC(=O)C2C3CCC(O3)C2C(=O)O)c(OC)c1 (stereo not drawn) | . | -19.0% | 1.7% | 2.0%
CN(C)P(=O)(C(Cl)=C(N1CCCCC1)N1CCCCC1)N(C)C | -1.1 | -3.8% | -11.5% | -0.1%
COc1cccc(CC(=O)N(C)C2CCCN(Cc3ccccc3F)C2)c1 (stereo not drawn) | . | 1.3% | -10.9% | 5.2%
CC(=O)OC1CC(OC2C(O)CC(OC3C(O)CC(OC4CCC5(C)C(CCC6C5CC(O)C5(C)C(C7=CC(=O)OC7)CCC65O)C4)OC3C)OC2C)OC(C)C1OC1OC(CO)C(O)C(O)C1O (stereo not drawn) | . | . | -5.5% | 0.9%
C#CCN1CCN(c2ccc(F)cc2)CC1 | 5.0 | 3.9% | 8.8% | -0.5%
CCN(CC)CCOC(=O)c1cc2cc(COC)ccc2o1 | 5.6 | -4.3% | -12.3% | 0.0%
CCCCNC(=O)c1c(N)n(CCCOC)c2nc3ccccc3nc12 | 9.7 | 0.2% | ? | ?
COc1ccc(NC(=O)N2CCC3(CC2)OCCO3)c(OC)c1 | 8.9 | -1.5% | 1.9% | -0.5%
CCn1cc(CN2CCCC(C(=O)c3sccc3C)C2)cn1 (stereo not drawn) | 5.0 | -1.1% | 16.3% | 5.5%
CC(=NCCN1CCOCC1)c1c(O)n(Cc2ccccc2)c(=O)[nH]c1=O | -22.9 | -2.8% | -3.5% | -6.1%
O=c1cc(-c2ccc(O)c(O)c2)oc2c(C3O[C@H](CO)[C@@H](O)[C@H](O)[C@H]3O)c(O)cc(O)c12 (stereo partly drawn) | -13.7 | -6.6% | -4.9% | ?
CCCCNC(=O)NC(C(N)=O)P(=O)(OCC)OCC (stereo not drawn) | -2.8 | 0.6% | 14.2% | -1.4%
C/C(=N\Nc1ccccc1)c1c(O)n(C)c(=O)n(C)c1=O | 5.7 | 8.5% | -6.2% | -1.1%
CSC(=Nc1ccccc1)c1c(O)n(C)c(=O)n(C)c1=O | 11.2 | 27.3% | -15.7% | 5.7%
Nc1c(C(=O)NCc2ccco2)c2nc3ccccc3nc2n1CCN1CCOCC1 | -0.6 | 5.7% | ? | ?
Cc1cc(C=C2C(=O)NC(=O)NC2=O)c(C)n1-c1ccc2c(c1)OCO2 | 4.1 | -4.2% | -20.9% | ?
CC(=NCCCn1ccnc1)c1c(O)n(-c2ccccc2)c(=O)[nH]c1=O | 3.7 | 0.1% | -3.1% | 0.7%
CCN1CCN(C(=O)Cc2ccc(C)cc2)CC1 | . | -20.7% | 12.1% | -3.3%
O=C1CN(O)C(c2ccccc2)=c2cc(Br)ccc2=N1 | . | -0.8% | 11.3% | -0.2%
O=C(NCc1ccc(C(=O)N2CCC3(CC2)OCCO3)cc1)c1cccc(Br)c1 | -3.9 | -4.8% | 9.6% | 4.8%
O=C1CN(O)C(c2ccccc2Cl)=c2cc(Br)ccc2=N1 | . | 1.2% | 11.7% | 0.5%
CCOP(=O)(OCC)C(NC(=O)CC(C)C)C(Cl)(Cl)Cl (stereo not drawn) | 8.7 | -1.3% | -10.5% | 2.4%
CCC1CN1P(=O)(Oc1ccc(Cl)cc1)N1CC1CC (stereo not drawn) | . | . | -0.2% | -0.5%
C#C[C@]1(O)CCC2C3C(=O)C=C4C=CCC[C@]4(C)C3CC[C@@]21C (stereo partly drawn) | . | . | -19.5% | ?
CCN(CC)CCN1Cc2ccccc2C1=N | -20.7 | 2.0% | -8.4% | -0.1%
O=C1NC(=O)N(c2cccc(Br)c2)C(=O)/C1=C/c1ccsc1 | -0.4 | 0.0% | 23.9% | 0.4%
C=Cc1ccc(Cn2c(C(=O)O)c(C=O)c3ccccc32)cc1 | -6.1[21.1 µM] | 0.5% | -25.9% | -0.9%
N#Cc1cc2c(nc1SCC(=O)Nc1cc(Cl)cc(Cl)c1)C1CCN2CC1 | -10.4 | -6.1% | 7.6% | -1.1%
COC(=O)C1=C(c2ccc(F)cc2OCc2ccccc2)C[C@@H]2CC[C@H]1N2C(=O)NCc1ccc(C(F)(F)F)cc1 | . | . | -2.7% | 0.2%
COC(=O)C1=C(c2cccc(OCc3ccccc3)c2)C[C@@H]2CC[C@H]1N2C(=O)NCc1ccc(OC)c(OC)c1 | . | . | -6.6% | -6.2%
CN1CCN(c2c(N)c(=O)oc3ccccc23)CC1 | 7.8 | -9.1% | 1.1% | 1.9%
CCC(C)N1Cc2ccccc2C1=N (stereo not drawn) | 9.8 | -5.0% | 6.6% | -0.7%
Cc1oc(-c2ccccc2F)nc1CS(=O)CC(=O)N1CCC2(CC1)OCCO2 (stereo not drawn) | 1.1 | -5.5% | -11.0% | 0.5%
O=C(c1cc(S(=O)(=O)N2CCOCC2)ccc1F)N1CCC2(CC1)OCCO2 | 10.5 | 0.7% | -22.1% | 1.3%
COc1ccc2c(c1)CC1(CN2C)C(=O)NC(=O)N(CCc2ccccc2)C1=O (stereo not drawn) | 5.1 | -9.5% | ? | ?
C[C@]12CC[C@@H](O)CC1=CC(=O)C1C2CC[C@]2(C)C(=O)CCC12 (stereo partly drawn) | . | . | ? | ?
C=CCN(CC=C)C(=O)Nc1ccc(OCC)cc1 | 5.6 | -20.6% | 8.4% | 0.2%
COc1ccc(N2C(=O)NC(=O)/C(=C/c3ccc([N+](=O)[O-])s3)C2=O)cc1 | 2.0 | 7.6% | -7.6% | 0.8%
O=C(COC(=O)Cc1ccccc1)Nc1ccc(F)cc1 | 3.4 | 2.3% | -14.9% | 0.0%
NS(=O)(=O)c1ccc(N=Nc2c(O)[nH]c(=S)[nH]c2=O)cc1 | -21.3 | 5.1% | -13.7% | 4.2%
Cc1ccc2c(c1)N(CCC(=O)N1CCC3(CC1)OCCO3)C(=O)CO2 | 9.7 | -7.3% | 9.5% | 0.9%
Cc1cc(NC(=O)COC(=O)c2c(C)nn(Cc3ccccc3)c2C)no1 | 1.2 | 12.3% | -0.3% | 3.1%
CC(C)(C)NC(=S)N1CCn2cccc2C1c1cccnc1 (stereo not drawn) | -26.9 | -3.4% | 15.7% | -3.0%
CC(/C=C(\C)Nc1ccccc1)=Nc1ccccc1 | 5.8 | -1.2% | -6.1% | 1.7%
COC(=O)C1=C(c2cccc(OC)c2OC)C[C@@H]2CC[C@H]1N2C(=O)NCCS(C)=O (stereo partly drawn) | . | . | -16.0% | -6.4%
CCC(=O)c1cn(Cc2ccccc2C#N)c2ccccc12 | 3.0 | -9.9% | -4.9% | -0.7%
CCOc1ccc(Cl)cc1CNCCc1ccccc1F | -4.4 | 1.1% | 14.9% | 0.4%

Single records, from the list above. Order of screens: GLA inh pH 4.5 | miR-21 reporter | Rango release inh | Rango-impB inh
CCC1CN1P(=O)(Oc1ccc(Cl)cc1)N1CC1CC (stereo not drawn) reads . | . | -0.2% | -0.5%
C=Cc1ccc(Cn2c(C(=O)O)c(C=O)c3ccccc32)cc1 reads -6.1[21.1 µM] | 0.5% | -25.9% | -0.9%
CC(=NCCN1CCOCC1)c1c(O)n(Cc2ccccc2)c(=O)[nH]c1=O reads -22.9 | -2.8% | -3.5% | -6.1%

More compounds follow:
SMILES | GLA inh pH 4.5 | miR-21 reporter | Rango release inh | Rango-impB inh
O=S(=O)(c1ccc(Cl)cc1)N1CC1c1ccccc1 (stereo not drawn) | -4.9 | -12.1% | 10.2% | -0.2%
O=C(Nc1nc(-c2ccccc2)c(-c2ccccc2)s1)c1ccc(S(=O)(=O)N(CCCl)CCCl)cc1 | -4.9 | -15.8% | -7.8% | -1.5%
CCC(=NCCCn1ccnc1)c1c(O)n(Cc2ccccc2)c(=O)[nH]c1=O | 3.7 | -10.5% | -8.6% | 3.1%
CC12CCC3C(CCC4C/C(=N/O)CCC43C)C1CCC2O (stereo not drawn) | -10.7 | 0.1% | -15.7% | 1.8%
COc1ccc(C2NCCc3[nH]cnc32)cc1 (stereo not drawn) | 4.9 | -1.9% | -6.4% | -2.6%
CC(=O)c1cccc(NC(=O)N2C[C@H]3C[C@@H](C2)c2cccc(=O)n2C3)c1 | . | 1.1% | -7.5% | 0.7%
O=[N+]([O-])c1cc(Cl)c(O)c(-[n+]2c(-c3ccccc3)cc(-c3ccccc3)cc2-c2ccccc2)c1 | . | 18.5% | -9.5% | ?
CN1CCC(=O)N(CCN=[N+]=[N-])CC1 | . | -0.2% | 1.9% | 1.6%
CN(Cc1c[nH]c2ccccc12)C1CCCCC1 | 2.4 | -3.9% | -0.7% | -1.0%
COc1ccc2c(c1)c(C(=O)C(C)N1CCCCC1)c(C)n2C (stereo not drawn) | . | -1.4% | 10.0% | -0.2%
O=C(COc1ccccc1F)N1CCN(CCN2C(=O)c3cccc4cccc(c34)C2=O)CC1 | -4.9 | -5.6% | 9.9% | -2.7%
C#CCOc1ccc2c(c1)c(C(C)=O)c(C)n2Cc1ccccc1 | 2.6 | -2.7% | -8.0% | 1.2%
CCC(=Nc1ccc2c(c1)CCC2)c1c(O)n(C2CCCCC2)c(=O)[nH]c1=O | -8.1 | -13.9% | 19.7% | 4.6%
Cc1c(C=O)c2ccccc2n1Cc1ccccc1 | . | -0.3% | 6.7% | -7.5%

Entries shown so far containing an aryl methoxy group, in the order listed:
SMILES | GLA inh pH 4.5 | miR-21 reporter | Rango release inh | Rango-impB inh
COc1ccc(NC(=O)C2C3CCC(O3)C2C(=O)O)c(OC)c1 (stereo not drawn) | . | -19.0% | 1.7% | 2.0%
COc1cccc(CC(=O)N(C)C2CCCN(Cc3ccccc3F)C2)c1 (stereo not drawn) | . | 1.3% | -10.9% | 5.2%
COc1ccc(NC(=O)N2CCC3(CC2)OCCO3)c(OC)c1 | 8.9 | -1.5% | 1.9% | -0.5%
COC(=O)C1=C(c2cccc(OCc3ccccc3)c2)C[C@@H]2CC[C@H]1N2C(=O)NCc1ccc(OC)c(OC)c1 | . | . | -6.6% | -6.2%
COc1ccc2c(c1)CC1(CN2C)C(=O)NC(=O)N(CCc2ccccc2)C1=O (stereo not drawn) | 5.1 | -9.5% | ? | ?
COc1ccc(N2C(=O)NC(=O)/C(=C/c3ccc([N+](=O)[O-])s3)C2=O)cc1 | 2.0 | 7.6% | -7.6% | 0.8%
COC(=O)C1=C(c2cccc(OC)c2OC)C[C@@H]2CC[C@H]1N2C(=O)NCCS(C)=O (stereo partly drawn) | . | . | -16.0% | -6.4%
COc1ccc(C2NCCc3[nH]cnc32)cc1 (stereo not drawn) | 4.9 | -1.9% | -6.4% | -2.6%
COc1ccc2c(c1)c(C(=O)C(C)N1CCCCC1)c(C)n2C (stereo not drawn) | . | -1.4% | 10.0% | -0.2%

This is a subset; count on the stated rates, not on these rows.
